KCNQ2 inh: KCNQ2 channel blockers in CHO-K1 cells – cell-based, FluxOR thallium flux, B-score, primary screen (AID 2156); actives 1.1% (n = 310,000); B-score at 10 µM; 20 min; hits give low values; only compounds with negative scores are shown here; some inactives read as strong as hits;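 active = fluorescence ratio B-score at most minus 3 library SDs, with starting brightness B-score within 2 library SDs, cut at about -5.5 in these data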
Target sequence (O88943 whole entry, looked up): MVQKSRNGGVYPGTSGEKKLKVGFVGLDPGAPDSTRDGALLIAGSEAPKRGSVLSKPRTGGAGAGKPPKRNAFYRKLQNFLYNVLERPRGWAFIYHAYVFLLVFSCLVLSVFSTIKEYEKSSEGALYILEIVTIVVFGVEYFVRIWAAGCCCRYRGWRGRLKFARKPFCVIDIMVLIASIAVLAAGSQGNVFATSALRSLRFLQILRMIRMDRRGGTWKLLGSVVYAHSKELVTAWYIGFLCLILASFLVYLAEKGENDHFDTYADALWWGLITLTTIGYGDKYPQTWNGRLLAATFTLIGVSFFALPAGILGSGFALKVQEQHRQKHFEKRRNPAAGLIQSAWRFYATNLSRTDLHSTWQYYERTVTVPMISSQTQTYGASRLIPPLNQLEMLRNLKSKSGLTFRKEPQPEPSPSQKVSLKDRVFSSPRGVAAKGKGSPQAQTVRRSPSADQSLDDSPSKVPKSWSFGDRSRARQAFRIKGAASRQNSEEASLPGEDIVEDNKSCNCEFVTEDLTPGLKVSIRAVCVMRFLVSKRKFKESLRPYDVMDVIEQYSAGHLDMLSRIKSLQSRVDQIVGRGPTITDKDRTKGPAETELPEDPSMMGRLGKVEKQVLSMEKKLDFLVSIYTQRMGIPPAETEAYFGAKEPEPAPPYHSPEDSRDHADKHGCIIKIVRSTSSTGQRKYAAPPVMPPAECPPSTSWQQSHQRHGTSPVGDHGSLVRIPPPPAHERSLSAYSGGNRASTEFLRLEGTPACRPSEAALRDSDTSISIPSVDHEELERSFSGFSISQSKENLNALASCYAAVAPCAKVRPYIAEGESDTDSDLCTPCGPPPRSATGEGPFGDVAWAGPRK
KCNQ2 inh baseline: second read-out of KCNQ2 inh, no call of its own (marks repeat the call); B-score; measured here: initial fluorescence intensity artifact check;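 brightness before thallium and not channel activity; 0 = typical well and far values either way flag optical interference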
* marks the source's active call; other numbers are inactive results; i = inactive. This is a subset (hit frequency here may not be typical).

KCNQ2 inh,KCNQ2 inh baseline,molecule
i,1.5,CCOC(=O)c1nn(-c2ccc(F)cc2)c(-c2ccccc2)c1C(=O)c1ccccc1
i,0.38,O=C(c1ccc(F)cc1)N1CCC(N2CCCCCC2)CC1
i,-2.28,O=C(N/N=C/c1ccc(N2CCOCC2)cc1)c1ccccc1NS(=O)(=O)c1cccs1
i,0.26,CC(=O)Nc1ccc(-c2cn3cccnc3n2)cc1
i,1.14,Cn1cccc1CNC1CCCCC1
i,-0.5,Cc1ccc(CC(=O)NCCS(=O)c2ccc(Cl)cc2)cc1 (configuration not stated)
i,-0.47,Cc1nc(-c2cccc(NC(=O)c3ccc(Br)o3)c2)cs1
i,0.29,Cc1cccc(OCC(=O)N2CCN(C(=O)Cc3ccccc3)CC2)c1
i,-1.52,OCc1nnn(-c2ccccc2)c1CO
i,1.32,O=C(CN1C(=O)COc2ccccc21)NCCCN1CCCC1
i,-0.02,CCC(CC)Nc1ccc(C(CC(N)=O)NC(=O)Cc2cccc3ccccc23)cc1[N+](=O)[O-] (configuration not stated)
i,-0.94,CCCCn1c(N)c(N(CCOC)C(=O)c2ccc(S(=O)(=O)N3CCCCCC3)cc2)c(=O)[nH]c1=O
i,-0.21,COc1cccc(CN(C(=O)/C=C/c2ccc(Cl)cc2)C2CCS(=O)(=O)C2)c1 (configuration not stated)
i,1.06,CSCCCNC(=S)N1CCN(c2ccc(C(C)=O)cc2)CC1
i,0.18,COC(=O)C1=C(C)N(CCCC(=O)O)C(=O)NC1c1ccccc1OS(=O)(=O)c1ccccc1[N+](=O)[O-] (configuration not stated)
i,-0.48,Cc1ccc(S(=O)(=O)Nc2c(O)c3ccccc3oc2=O)cc1
i,0.85,Cc1cc(CC(C)C)n(-c2nc3ccccc3c(=O)n2OCC(=O)N(C)C)n1
i,0.12,CS(=O)(=O)O/N=C1\CCCCC1c1ccc([N+](=O)[O-])cc1[N+](=O)[O-] (configuration not stated)
i,-0.32,CC(C)(C)C(=O)Nc1cc(S(=O)(=O)N2CCCCC2)ccc1N1CCCCC1
i,-0.17,COc1ccccc1NC(=O)CCNS(=O)(=O)c1ccc2c(c1)CCN2C(C)=O
i,0.3,COC(=O)NNC(=O)c1ccc(C(C)(C)C)cc1
i,-0.05,Cc1[nH]c2ccccc2c1SCc1ccccc1
i,3.33,Cc1nc2ncnn2c(C)c1CCC(=O)N1CCc2ccccc2C1
i,2.44,COc1ccc2sc(NC(=O)NC(=O)c3c(Cl)cccc3Cl)nc2c1
i,-1.07,O=C(CN1C(=O)c2ccccc2C1=O)N(CCO)Cc1ccccc1
i,-0.11,CC(C)Oc1ccc(CC(=O)NNC(=S)Nc2ccccc2)cc1
i,0.7,COc1cccc(CN2CCNC(=O)C2CC(=O)NC2CCCCC2)c1OC (configuration not stated)
i,1.06,CC1CCCCC12NC(=O)N(Cc1cc(=O)n3ccsc3n1)C2=O (configuration not stated)
i,-0.18,CSCC[C@H](NC(=O)OC(C)(C)C)c1nnc(SCC=C(C)C)o1
i,-0.27,CC(=O)N1CCOc2ccc(S(=O)(=O)NCc3ccc(C)cc3)cc21
i,-0.02,COc1ccc(C(C)NC(=O)c2ccoc2C)cc1OC (configuration not stated)
i,-1.05,O=c1c2c3c(sc2nc2n1CCCS2)CCCC3
i,-0.2,Cc1cccn2c(CN(C)CCC3CCCCO3)c(C(=O)N3CCCCC3)nc12 (configuration not stated)
i,-0.48,NC(N)=NN=C1CCCCCCCCCCC1
i,-0.39,O=C(NCCNc1ccc([N+](=O)[O-])cc1)c1ccco1
i,0.97,COc1ccc(CCNC(=O)CSc2nncn2N)cc1OC
i,0.05,Cc1ccc(C)c(NC(=O)CN(C)C(=O)c2ccc(-c3cccc(C(F)(F)F)c3)o2)c1
i,0.58,CCN(CC)CC#CCC(C)(c1ccccc1)c1ccccc1
i,-1.47,COCCc1ncc(CN2CCC(C(=O)Nc3ccc(-n4cccn4)cc3)CC2)cn1
i,-1.03,COc1ccccc1NC(=O)CSc1nc(N)cc(N)n1

Quoted at random: four records from the list
KCNQ2 inh,KCNQ2 inh baseline,molecule
i,-1.47,COCCc1ncc(CN2CCC(C(=O)Nc3ccc(-n4cccn4)cc3)CC2)cn1
i,-0.39,O=C(NCCNc1ccc([N+](=O)[O-])cc1)c1ccco1
i,-1.03,COc1ccccc1NC(=O)CSc1nc(N)cc(N)n1
i,0.97,COc1ccc(CCNC(=O)CSc2nncn2N)cc1OC

The listing picks up with the 7 entries that preceded the break.
KCNQ2 inh,KCNQ2 inh baseline,molecule
i,-0.48,NC(N)=NN=C1CCCCCCCCCCC1
i,-0.39,O=C(NCCNc1ccc([N+](=O)[O-])cc1)c1ccco1
i,0.97,COc1ccc(CCNC(=O)CSc2nncn2N)cc1OC
i,0.05,Cc1ccc(C)c(NC(=O)CN(C)C(=O)c2ccc(-c3cccc(C(F)(F)F)c3)o2)c1
i,0.58,CCN(CC)CC#CCC(C)(c1ccccc1)c1ccccc1
i,-1.47,COCCc1ncc(CN2CCC(C(=O)Nc3ccc(-n4cccn4)cc3)CC2)cn1
i,-1.03,COc1ccccc1NC(=O)CSc1nc(N)cc(N)n1
i,-0.58,O=C(Nc1cccc2c1CCCC2)c1ccc(Br)o1
i,0.75,CC(C(=O)Nc1ccccn1)(c1ccccc1)c1ccccc1
i,-0.18,COC(=O)Cn1c(=NC(=O)c2ccc([N+](=O)[O-])s2)sc2cc(Br)ccc21
i,-0.89,CC1CCN(C(=O)CNC(=O)Cc2ccccc2)CC1
i,-0.04,CC1C(C)C(O)(c2ccccc2)CCN1C (configuration not stated)
i,-0.43,Cc1noc(NS(=O)(=O)c2ccc(NC(=O)Cc3ccc([N+](=O)[O-])cc3)cc2)c1C
i,1.85,Cc1ccc(S(=O)(=O)N2CCN(CCc3ccccc3)CC2)c(C)c1
i,-0.64,Cc1ccccc1NC(=O)c1c(C)cc(=O)oc1C
i,0.46,CCN(C(=O)COC(=O)Cn1c(C)csc1=O)c1c(N)n(Cc2ccccc2)c(=O)[nH]c1=O
i,-0.06,O=C(N/N=C/c1cccnc1)c1ccccc1OCc1ccc(Br)cc1
i,-1.46,CCOc1ccc(-n2c(SCc3cc(=O)oc4cc(C)c(C(C)C)cc34)nnc2-c2cccnc2)cc1
i,-0.04,CCCCN(CC)C(=O)Cc1ccccc1OC
i,1.52,CCc1ccc(OC)c(-c2csc(N)n2)c1
i,1.33,Cn1c(=O)c2c(nc(NC3CCCCC3)n2CC(O)COc2ccccc2)n(C)c1=O (configuration not stated)
i,-0.85,CCOc1cc(C(=O)Nc2cc(C)ccc2OC)ccc1OCC(=O)N1CCCCC1
i,-0.93,COc1ccc2c(c1)CCc1cn3ncc(C#N)c3nc1-2
i,-0.64,O=S(=O)(c1cccs1)N1CCN(Cc2cccc(F)c2)CC1
i,0.12,Cc1cccc(NC(=O)C2CC(=O)n3cnnc3S2)c1 (configuration not stated)
i,-0.04,Cc1ccccc1NC(=O)CCc1c(C)nn(-c2ccc(N3CCOCC3)nn2)c1C
i,-1.47,O=C(c1cnn(C(=O)c2ccc(O)cc2)c1)c1ccccc1O
i,-0.42,C=CCn1c(SCCOc2ccc(OC)cc2)nnc1C(C)NC(=O)c1ccc(OC)cc1 (configuration not stated)
i,-0.02,FC(F)(F)c1nc(SCc2ccc(Cl)cc2Cl)n[nH]1
i,0.35,COc1ccc(/C=N/NC(=S)Nc2cc(S(=O)(=O)N3CCOCC3)ccc2N2CCOCC2)cc1O
i,-0.7,O=C(C1CCCN(S(=O)(=O)c2ccc(F)cc2)C1)N(Cc1cccs1)C1CC1 (configuration not stated)
i,0.63,CCCCn1c(SCC(=O)N2CCN(c3ccccc3)CC2)nc2ccsc2c1=O
i,-0.15,O=C(CN1CCOc2ccccc21)NC1CC1
i,1.72,COc1ccc(CCNC(=O)N2CCOCC2)cc1
i,-1.55,OCCOCCn1c(CCNc2nc(-c3ccc(F)cc3)cs2)nc2cc(C(F)(F)F)ccc21
-7.49*,0.01*,COc1ccc(-c2cc(C(=O)N(C)Cc3ccc(F)cc3)c3ccccc3n2)cc1OC
i,0.05,Cc1ccc(C)c(CSC2=NCCN2C(=O)Cc2ccc([N+](=O)[O-])cc2)c1
i,1.09,CC1=C(C(N)=O)C(c2ccc(F)cc2)n2nc(CCCO)nc2N1 (configuration not stated)
i,-1.07,CCOC(=O)C1=C(CC)Nc2ccccc2N=C1NC(=O)c1cccc(S(=O)(=O)N2CCCC2)c1
i,2.69,Cc1oc(C)c2c(=O)ccc3c(c12)OC(N)=C(C#N)C3c1ccccc1Cl (configuration not stated)
i,-1.6,CNS(=O)(=O)c1cccc(C(=O)OCC(=O)N(Cc2ccccc2)C(C)(C)C)c1
i,0.28,C=CCn1c2ccccc2c2nnc(SCN3C(=O)c4ccccc4C3=O)nc21
i,1.51,C[C@@H]1C[C@H]2[C@@H]3CCC4=CC(=O)C=C[C@]4(C)[C@@]3(F)[C@@H](O)C[C@]2(C)[C@@]1(O)C(=O)CO
i,-0.03,COc1ccc(CN2CCc3ccc(NC(=O)CCc4ccccc4OC)cc3C2)c(O)c1
i,0.02,O=C(CCCc1cccs1)NCCc1c[nH]c2ccccc12
i,-0.2,O=C(NCC1CCCO1)c1ccccc1NS(=O)(=O)c1cccs1 (configuration not stated)
i,1.46,CCn1cc(C(=O)NCCCN2CC(C)CC(C)C2)c(=O)c2cc(S(=O)(=O)N(C)C)ccc21 (configuration not stated)
i,1.6,N#Cc1cc(Oc2ccc3ccccc3c2)c(-n2nnc3ccccc32)cc1C#N
i,1.68,O=c1c(-c2ccc(Br)cc2)[n+]([O-])c2ccccc2n1OCc1ccccn1
i,0.45,CNc1nc(N(C)C)nc(N(C)C)n1
i,0.27,O=C(c1cc(-c2ccco2)on1)N1CCc2ccccc2C1
i,6.08,CCc1ccc(CN2CCN(S(=O)(=O)Cc3ccccc3)CC2)cc1
i,0.7,CCCN1Cc2cccc(C(=O)Nc3ccc4c(c3)OCCO4)c2C1=O
i,-3.09,COc1ccc(NC(=O)CSc2nnc(CCC(=O)O)c(=O)n2N)cc1
i,-0.61,C/C(=N/Nc1nc(C)cc(C)n1)c1ccc(Br)cc1
i,-0.03,COC1CCCN(Cc2c(C(=O)N3CCN(C4CCCCC4)CC3)nc3ccccn23)C1 (configuration not stated)
i,0.93,Nc1nn2cc(-c3ccc(Br)cc3)nc2c2ccccc12
i,1.47,CCOC(=O)C1CCN(C(=O)Cn2ncc3c([nH]c4ccccc43)c2=O)CC1
i,-1.51,CCCOc1ccccc1C1CC(=O)Nc2cc3c(cc21)OCCO3 (configuration not stated)
i,0.01,COc1ccc2cc(S(=O)(=O)N3CCCCC3)ccc2c1S(=O)(=O)N1CCCCC1
i,0.78,CC(C)(C)CN1C(N)=NC[C@@H]1Cc1ccc(O)cc1
i,0.64,CCOC(=O)c1n[nH]c(=O)c2ccccc12
i,-0.11,O=C(CSc1nnc(CNC(=O)c2cccc(C(F)(F)F)c2)o1)NC1CCCC1
i,0.38,COCCOC(=O)C1=C(C)N=C2SCCC(=O)N2C1/C=C/c1ccccc1 (configuration not stated)
i,-1.31,COc1ccc(CN2CCN(C(=O)c3ccco3)CC2)c(OC)c1OC
i,0.44,O=Cc1ccc(OCc2cccc(C(F)(F)F)c2)cc1O
i,2.58,COc1ccc(/C=C(\C#N)C(=O)NCC(c2ccc(F)cc2)N2CCOCC2)cc1 (configuration not stated)

Part of the list above, field by field:
structure: CNc1nc(N(C)C)nc(N(C)C)n1
  KCNQ2 inh: i | KCNQ2 inh baseline: 0.45
structure: O=C(CSc1nnc(CNC(=O)c2cccc(C(F)(F)F)c2)o1)NC1CCCC1
  KCNQ2 inh: i | KCNQ2 inh baseline: -0.11

(list continues)
KCNQ2 inh,KCNQ2 inh baseline,molecule
i,-0.54,CC(=O)n1c(=O)c2ccccc2c(=O)n1-c1ccccc1
i,-0.63,CC(NC(=O)CC1Nc2ccccc2NC1=O)c1ccccc1 (configuration not stated)
i,1.89,Cn1cc(/C=N\O)nc2c(=O)n(-c3ccccc3)c(=O)nc1-2
i,2.39,Cc1ccnc(NC(=O)c2ccc3c(c2)S(=O)(=O)c2ccccc2C3=O)c1
-6.86*,0.03*,Cc1ccc(-c2cc(C(=O)N3CCCc4ccccc43)c3ccccc3n2)cc1
i,1.47,O=C(N/C(=C/c1cn(-c2ccccc2)nc1-c1ccccc1)C(=O)N1CCOCC1)c1ccccc1
i,1.55,CCOC(=O)Cn1nc(C)c(NC(=O)COc2ccc(F)cc2F)c1C
i,-0.29,O=C(CNC(=O)c1ccco1)OCc1ccc(Cl)cc1
i,0.44,CCC(C)(C)C(=O)Nc1cccc(Cl)c1C
i,-0.35,O=c1[nH]c(=O)n(Cc2ccco2)c2c1C(C(F)(F)F)(C(F)(F)F)N=C(CCC1CCCCC1)N2
i,-0.8,Cc1nc2sc(C(c3cccs3)N3CCC(C(N)=O)CC3)c(O)n2n1 (configuration not stated)
i,-0.01,CCc1cc2c(=O)c(-c3nc4ccccc4[nH]3)coc2c(CN2CCCCC2C)c1O (configuration not stated)
i,-0.29,Cc1ccc(Cn2c(=N)c(S(=O)(=O)c3ccc(C)cc3)cc3c(=O)n4ccccc4nc32)cc1
i,-0.3,CCN1C(=O)CC(Sc2ccccc2N)C1=O (configuration not stated)
i,-1.46,CCc1c(C)sc(NC(=O)OC)c1C(N)=O
i,0.87,O=C(CC1C(=O)NCCN1CCCc1ccccc1)NCCc1ccccc1F (configuration not stated)
i,-0.04,OC(COc1cccc2ccccc12)CN1CCN(c2ccccc2Cl)CC1 (configuration not stated)

From PubChem
